High-throughput results from PubChem.
gsp antagonist: antagonists of gsp mutant (McCune-Albright syndrome); gsp-mutant cells, cAMP HTRF, 30 min; control for the full effect not named in the record; Potency, µM (highest dose often 76.9 µM), for the others: at the top dose activity change, negative = inhibition, most hits filed as inhibitors; 0.4% of 340,000 active; AID 624288; active = falling curve of any shape with a large fitted effect; inconclusive = falling curve, mostly with a smaller effect; inactive = flat or rising curve; cell line not stated here;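 note: intracellular cAMP measured with PDE inhibitor Ro 20-1724 present during compound exposure; potency is the fitted concentration of half-maximal effect; % is set by controls: 0 for no effect and ±100 for the full control effect; nearly all actives have a fitted effect of over 65% in size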
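G418-selected cells were plated in DMEM/10% FBS for 16-24 h at 37C, then treated with compounds plus the PDE inhibitor […] (300 uM solution added) for 30 min at 37C. Intracellular cAMP was measured by HTRF after 30 min lysis at room temperature.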
Menin-MLL FL inh: menin-MLL binding inhibition, fluorescein peptide; Fluorescence polarization, fluorescein-MLL peptide displacement from menin; FP activity change, % at 61.4 µM; 290,000 tested, under 10 active; AID 1766; inconclusive = falling polarisation curve, or a change in total fluorescence; inactive = total fluorescence flat and polarisation flat or rising; no compound was filed as active; the % refers to the polarisation; negative = inhibition;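 note: % of control where 0% means no effect; inhibitors lower the polarisation; unlabelled MLL peptide was the positive control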
TRPV1 potentiator: human TRPV1 potentiation. potentiation, % at 8.33 µM. 0.02% of 320,000 active. Q8NER1. AID 540277. TRPV1-expressing cells, Fluo-8 calcium influx, capsaicin EC20 potentiation; host cell line not named in the record; control for the full effect not named in the record; active means potentiation above 80%; inconclusive means 30% to 80%; inactive means below 30%; note: 0% is about no effect
Target sequence (Q8NER1 whole entry, looked up): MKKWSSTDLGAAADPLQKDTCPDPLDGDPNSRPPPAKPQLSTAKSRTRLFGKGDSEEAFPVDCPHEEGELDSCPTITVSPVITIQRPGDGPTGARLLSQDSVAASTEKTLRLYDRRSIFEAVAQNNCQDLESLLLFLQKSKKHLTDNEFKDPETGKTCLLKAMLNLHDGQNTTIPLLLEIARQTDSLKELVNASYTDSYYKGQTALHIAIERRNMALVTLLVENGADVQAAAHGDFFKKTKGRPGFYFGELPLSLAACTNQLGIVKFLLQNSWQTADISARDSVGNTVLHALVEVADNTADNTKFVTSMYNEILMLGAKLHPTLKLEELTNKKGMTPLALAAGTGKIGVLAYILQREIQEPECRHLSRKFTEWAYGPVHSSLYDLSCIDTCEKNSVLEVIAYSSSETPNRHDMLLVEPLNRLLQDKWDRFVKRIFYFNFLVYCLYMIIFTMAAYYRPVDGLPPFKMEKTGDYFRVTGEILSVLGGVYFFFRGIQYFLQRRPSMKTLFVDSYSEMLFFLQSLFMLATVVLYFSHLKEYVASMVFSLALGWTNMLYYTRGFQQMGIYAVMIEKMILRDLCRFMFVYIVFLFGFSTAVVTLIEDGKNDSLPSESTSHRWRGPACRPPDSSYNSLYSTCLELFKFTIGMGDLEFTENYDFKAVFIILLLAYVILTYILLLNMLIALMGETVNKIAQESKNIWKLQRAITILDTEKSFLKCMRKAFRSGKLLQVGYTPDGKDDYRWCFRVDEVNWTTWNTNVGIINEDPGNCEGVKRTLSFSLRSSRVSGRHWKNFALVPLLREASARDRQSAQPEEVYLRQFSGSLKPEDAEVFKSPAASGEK
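Fluo-8 calcium influx in TRPV1-expressing cells, kinetic read (ex 480/em 520 nm). Compound added and read 3 min for agonist activity, followed by capsaicin at EC20 final and 2 min further read for enhancement.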
CtBP-E1A inh: CtBP/E1A binding inhibition; AlphaScreen GST-E1A/His-CtBP binding, 1536-well; hits give low values; control for the full effect not named in the record; AID 651724; activity change, % (test concentration not listed); 0.49% of 340,000 active; in the data active means activity change below about -65%; inconclusive means about -30% to -65%; inactive means above about -30%; note: % is set by controls: 0 for no effect and ±100 for the full control effect; compound concentration not given in the record
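AlphaScreen with 125 nM GST-E1A and 125 nM His-CtBP (5X stocks) in Tris pH 8.0, 300 mM NaCl, BSA, Tween 20, TCEP. Compounds preincubated 2 h at 37 deg C, then glutathione donor/nickel acceptor beads added for 1 h at 37 deg C in dark.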
Sfp PPTase inh: Sfp phosphopantetheinyl transferase inhibition. 3.5% of 310,000 active. Potency, µM, for inactives: max response, negative = inhibition, most hits filed as inhibitors. Q9F4F7. Biochemical Sfp PPTase activity, qHTS; active = well fitted inhibition curve with a large enough effect; inconclusive = small, poorly fitted or top-dose-only effect, or another doubt; inactive = no such curve, though single readings can be large or run the other way;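 note: the enzyme is Sfp with the accession as filed and its product quenches rhodamine fluorescence; potency is the fitted concentration of half-maximal effect; 0% = enzyme reaction without inhibitor and -100% = no enzyme wells; top concentration of the series not given in the record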
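Fluorescence-quenching assay: 15 nM Sfp-PPTase preincubated 15 min at room temperature with compound, then 5 uM rhodamine-CoA and 12.5 uM BHQ-2-labelled YbbR peptide added. Fluorescence (ex 525/em 598 nm) read at start and after 30 min; difference gives rate.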
ClpP mod: qHTS Assay for Activators of ClpP; AID 651965, 2013; purified B. subtilis ClpP, FRET peptide cleavage, 20 min; ATP-dependent Clp protease proteolytic subunit (Bacillus subtilis (strain 168)), P80244; 1.9% of 340,000 active; Potency, µM (series often up to 57.5 µM), for the others: at the highest dose activity change, negative = active; active = well fitted falling curve with a large enough effect; inconclusive = small, poorly fitted or top-dose-only effect; inactive = no such curve, though single readings can be large or run the other way; note: potency is the fitted concentration of half-maximal effect; the source files actives as falling curves though it sought activators and does not explain the sign; nearly all actives have a fitted effect of over 65% in size; many hits overshoot -100%
Target sequence (P80244 whole entry, looked up): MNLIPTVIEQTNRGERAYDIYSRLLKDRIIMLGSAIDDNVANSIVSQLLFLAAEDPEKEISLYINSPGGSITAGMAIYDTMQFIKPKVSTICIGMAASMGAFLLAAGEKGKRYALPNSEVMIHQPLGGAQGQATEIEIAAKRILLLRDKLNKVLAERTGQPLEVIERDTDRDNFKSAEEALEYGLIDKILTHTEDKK
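FRET quenching reversal measured ClpP activation: 10 microg/mL B. subtilis ClpP at pH 8 with the FRET-FV decapeptide, read at 430 nm after 320 nm excitation. The 20-min minus 0-min signal was scaled between DMSO/no-enzyme wells and ADEP (5.8 microM final).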
gsp agonist: gsp mutant agonism | 0.13% of 340,000 active | AID 624287 | gsp mutant cells, cAMP HTRF, 30 min; control for the full effect not named in the record | Potency, µM (doses to about 76.9 µM), for the others: top-dose activation (cAMP increase), hits mostly activators; active = well fitted activation curve with a large enough effect; inconclusive = small, poorly fitted or top-dose-only effect, or another doubt; inactive = no such curve, though single readings can be large or run the other way; cell line not stated here;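 note: phosphodiesterase inhibitor Ro 20-1724 added with compounds to block cAMP breakdown; potency is the fitted concentration of half-maximal effect; nearly all actives have a fitted effect of over 60% in size; about a fifth of the inactives were tested at one dose only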
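Cells in DMEM/10% FBS with G418 were pretreated with compounds in DMSO plus […] (300 uM stock) for 30 min at 37C. cAMP was measured by HTRF (cAMP-d2 plus anti-cAMP antibody-K) after 30 min at room temperature.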
The depositor's hits bear a star; ? = inconclusive; · = no result given; & = joins results of further samples; [ ] = remark or other dose.

SMILES	gsp antagonist	Menin-MLL FL inh	TRPV1 potentiator	CtBP-E1A inh	Sfp PPTase inh	ClpP mod	gsp agonist
CCOC(=O)c1[nH]c(C=O)c(C(=O)OCC)c1C	·	0.0	13	-8	14%	·	-1%[15.4 µM]
C=CCNC(=O)/C(=C\c1ccc([N+](=O)[O-])cc1)NC(C)=O	10%	0.1	-4	1	19%	-0.6%	-25%
CCCn1c(C)cc(C(=O)COc2ccc(S(=O)(=O)N(CC)CC)cc2[N+](=O)[O-])c1C	2%	-2.4	?	-25	-13%	-0.7%	10%[15.4 µM]
O=C(CC1SC(N2CCCC2)=NC1=O)Nc1ccc(C(=O)NCc2ccccc2F)cc1 (stereo not given)	·	·	·	1	·	-0.3%	-36%[inhibitor]
N#Cc1c(SCc2c(Cl)cccc2Cl)nc(N)[nH]c1=S	-16%	·	12	-3	·	-0.4%	-2%
Cc1ccccc1-c1cnc2c(c1)C(=O)N([C@H](C)CO)C[C@@H](C)[C@H](CN(C)C(=O)c1ccncc1)O2	·	·	·	6	·	1.0%	-5%
Cn1c(-c2ncc(F)cc2F)cc2onc(-c3c(F)cccc3Cl)c2c1=O	1%	·	·	-7	·	-16%	-32%
Cc1nnc(NC(=O)CCCN2C(=O)c3ccccc3C2=O)s1	8%	5.1	22	-5	5%	-1.3%	-52%[inhibitor]
CCN(CC)S(=O)(=O)c1ccc(N=Nc2c(C)[nH]n(C(N)=S)c2=O)cc1	?	1.4	-4	-7	79µM*	0.6%	1%
O=C(Cn1nnc(-c2ccc3c(c2)OCO3)n1)NCc1ccccc1	20%	0.3	-12	11	-5%	1.1%	-4%[15.4 µM]

Next section; the last two above are carried over.
SMILES	gsp antagonist	Menin-MLL FL inh	TRPV1 potentiator	CtBP-E1A inh	Sfp PPTase inh	ClpP mod	gsp agonist
CCN(CC)S(=O)(=O)c1ccc(N=Nc2c(C)[nH]n(C(N)=S)c2=O)cc1	?	1.4	-4	-7	79µM*	0.6%	1%
O=C(Cn1nnc(-c2ccc3c(c2)OCO3)n1)NCc1ccccc1	20%	0.3	-12	11	-5%	1.1%	-4%[15.4 µM]
CS(=O)(=O)N(CC(=O)NCc1ccco1)c1ccc2c(c1)OCO2	1%	0.5	-10	7	-23%	-1.1%	-30%
CCCN1CCC(=O)N([C@H](CSc2ccc(Br)cc2)c2ccccc2)CC1	4%	0.1	-35	-4	6%	-2.0%	·
O=C(CSc1ccccc1)Nc1nnc(COc2ccc(Cl)cc2)s1	5%	3.8	18	-1	14µM*	-2.7%	8%[15.4 µM]
COC(=O)c1ccccc1CON1C(=O)C(C)(C)N(OCc2ccccc2C(=O)OC)C(=O)C1(C)C	?	-2.1	19	9	9%	-1.8%	12%
COC(=O)C1SCC2C(=O)N(Cc3ccccc3)CC(=O)N21 (stereo not given)	5%	0.8	-8	-8	-14%	·	?
CCOc1ccc2ncc(S(=O)(=O)c3ccccc3)c(N3CCN(c4ccc(OC)cc4)CC3)c2c1	-4%	11	-2	-16	-3%	1.4%	10%
Cc1ccn(CC(=O)N2CCCC(N3CCN(c4ccccc4F)CC3)C2)n1 (stereo not given)	8%	-0.7	-7	7	25%	0.6%	-73%[inhibitor]
O=c1cc(CSc2ccc(Cl)cc2)nc(N2CCCCC2)[nH]1	9%	0.3	5	-2	2%	-2.0%	-7%
CCN1CCN(CCNC(=O)CCc2c(C)c3c(C)nn(-c4ccccc4)c3n(C)c2=O)CC1	-7%	·	3	-18	6%	3.3%	-18%
CCOC(=O)[C@@H]1[C@H]2COc3cc(OC)ccc3[C@H]2N2C(=O)N(c3ccc(C)cc3)C(=O)[C@@]12C	-5%	-1.2	-10	-8	17%	0.3%	-29%
COc1ccc(C(=O)/C=C/c2ccccc2F)c(OC(=O)c2ccc([N+](=O)[O-])cc2)c1	4%	-1.6	2	7	9%	-2.0%	7%[15.4 µM]
NC(=O)CCN1CCCCC1	5%	3.7	-7	-4	-7%	-2.1%	17%
C#CC1(O)CCCC2C3CCC4CC(OC(C)=O)CCC4(C)C3C(=O)CC21C (stereo not given)	-5%	·	·	0	·	·	24%
CC(=O)N1CCC2(CC1)CC(=O)c1cc(OCC(=O)NCc3ccco3)ccc1O2	4%	0.4	13	2	7%	11µM*	-22%
C=CCn1c(CNc2ccc(C)cc2)nnc1SCC(=O)N/N=C/c1ccc(O)cc1O	?	-0.1	-1	-82*	16%	-1.0%	4%
O=C(NC(=S)Nc1ccccn1)c1ccc([N+](=O)[O-])cc1	-10%	0.0	-2	-15	-29%	-3.8%	3%
O=[N+]([O-])c1ccc(N2CCN(c3cccc(Cl)c3)CC2)cn1	-9%	-2.2	19	-6	-5%	·	-13%
CCN(CC)C(=S)Nc1ccc(Cl)c(Cl)c1	0%	-0.9	-12	1	7%	-0.4%	-5%
CS(=O)(=O)N(CC(=O)N1CCN(c2ccccc2)CC1)c1ccccc1Cl	-7%	·	·	6	·	-12%	?
CCCCNC(=O)O[C@@H]1C[C@H]2CCCC(=O)N3CC[C@@H](C1)[C@@H]23	6%	7.4	1	0	6%	1.5%&-1.3%	7%
CCC(=O)N1CCN(c2nc(-c3ccccc3)c3c(c2C#N)CCCC3)CC1	-17%	-1.3	-1	-8	-24%	32µM*	-26%
COc1ccc2[nH]c3c(c2c1)CCN1C(=O)C(CC(=O)NC(C)(C)C)C[C@H](C(=O)N2CCOCC2)[C@@]31CCC1CCCC1 (stereo not given in full)	-6%	·	·	-1	·	-0.2%	·
CC(=O)CC1=NC(C)(C)Cc2ccccc21	5%	1.8	-18	-3	3%	·	27%
Cn1c(N2CCN(C(c3ccccc3)c3ccccc3)CC2)nc2ccccc21	?	0.3	?	-11	5%	-3.0%	9%[15.4 µM]
COc1ccc(N(C(=O)c2ccco2)S(=O)(=O)c2ccccc2)cc1	-15%	4.1	8	-1	-11%	0.3%	-4%
C[C@H](CO)N1C[C@H](C)[C@@H](CN(C)S(=O)(=O)c2cn(C)cn2)Oc2ccc(NC(=O)NC3CCCCC3)cc2C1=O	13%	·	·	4	·	-3.1%	·
CCOC(=O)c1c(C)[nH]c(C(=O)CC(=O)OC)c1C	48%[activator]	-2.2	-10	·	23%	-0.1%	7%
CCOC(=O)Cc1nnc(NC(=O)C23CC4CC(CC(C4)C2)C3)s1	0%	-1.6	-16	-6	10%	·	19%
CC(=O)Cc1nsc(NC(=O)c2ccc(-c3ccc(F)cc3)o2)n1	-18%	3.6	3	1	-5%	·	6%
O=C(COc1ccc(Cl)cc1)Nc1cccc(-c2ccc3nncn3n2)c1	-10%	-3.0	27	-20	3%	·	6%
COc1ccc(N2CCN(c3nc(-c4cccs4)nc4ccccc34)CC2)cc1	·	2.4	19	-17	-16%	·	-21%[15.4 µM]
C/C(=N\Nc1nc(C(=O)O)cs1)c1ccccc1	12%	2.2	3	?	-10%	·	-11%[15.4 µM]
CN(C)c1ccc(NC(=O)C2C3C=CC(C3)C2C(=O)O)cc1 (stereo not given)	28µM*	-9.8	3	?	50µM*	0.4%	-110%[inhibitor]
Cc1oc(-c2ccc(Cl)cc2)nc1CS(=O)CC(=O)NC(C)c1ccccc1 (stereo not given)	3%	·	?	·	4%	-13%	-20%
CCNC(=O)/C(=C\c1ccc2c(c1)OCO2)NC(=O)c1ccc(Br)cc1	4%	6.9	-3	8	20%	0.2%	3%
CC(CCc1ccccc1)NC(=O)COC(=O)c1cccc(N(C)C)c1 (stereo not given)	-14%	-5.4	-17	·	-4%	-20%	3%
O=C(c1cccc(S(=O)(=O)N2CCN(c3ccc(F)cc3)CC2)c1)N1CCN(c2ccccc2O)CC1	-7%	·	·	-9	·	-0.3%	5%
Cn1c(NCc2c(O)ccc3ccccc23)nc2ccccc21	-23%	-0.3	5	-9	-9%	?	8%
CNC(=S)N1CCN(c2nc(-c3ccc(F)cc3)cs2)CC1	?	-3.3	-3	·	0%	-0.8%	-15%
Cc1ccc(N=c2c([N+](=O)[O-])nn(-c3ccc4c(c3)OCCO4)n2O)cc1F	-8%	-0.2	1	0	10%	·	-3%

Record cards (already shown). Order of values: gsp antagonist | Menin-MLL FL inh | TRPV1 potentiator | CtBP-E1A inh | Sfp PPTase inh | ClpP mod | gsp agonist
Results for COC(=O)C1SCC2C(=O)N(Cc3ccccc3)CC(=O)N21 (stereo not given) : 5% | 0.8 | -8 | -8 | -14% | · | ?
Results for N#Cc1c(SCc2c(Cl)cccc2Cl)nc(N)[nH]c1=S : -16% | · | 12 | -3 | · | -0.4% | -2%
Results for CCCCNC(=O)O[C@@H]1C[C@H]2CCCC(=O)N3CC[C@@H](C1)[C@@H]23 : 6% | 7.4 | 1 | 0 | 6% | 1.5%&-1.3% | 7%
Results for CCC(=O)N1CCN(c2nc(-c3ccccc3)c3c(c2C#N)CCCC3)CC1 : -17% | -1.3 | -1 | -8 | -24% | 32µM* | -26%
Results for CS(=O)(=O)N(CC(=O)N1CCN(c2ccccc2)CC1)c1ccccc1Cl : -7% | · | · | 6 | · | -12% | ?

More results.
SMILES	gsp antagonist	Menin-MLL FL inh	TRPV1 potentiator	CtBP-E1A inh	Sfp PPTase inh	ClpP mod	gsp agonist
O=C(c1cc2ncc(CCCl)cn2n1)N1CCCCCC1	8%	-4.5	7	-1	-5%	-2.9%	-16%
O=C(Nc1cccc(NC(=O)c2ccco2)c1)c1ccc([N+](=O)[O-])cc1	-17%	4.3	-2	3	-16%	0.5%	6%[15.4 µM]
CCOc1ccc(NC(=O)CN(C)C(=O)C2CC(=O)N(c3ccc4c(c3)OCCO4)C2)cc1OCC (stereo not given)	2%	·	-2	-5	·	-0.7%	-72%[inhibitor]
O=S(=O)(c1ccc(SCCO)nc1)N1CCCC1	3%	-0.6	0	-10	5%	-0.4%	-2%
CCC(=O)OCCn1c(Br)nc2c1c(=O)[nH]c(=O)n2C	-8%	2.9	4	-1	5%	-3.1%	13%
O=C(COc1ccccc1[N+](=O)[O-])N(C1CCCCC1)C1CCS(=O)(=O)C1 (stereo not given)	0%	·	8	5	·	·	-9%[15.4 µM]
CC(=O)c1cc2c(cc1NC(=O)CCCC(=O)O)OCO2	-14%	5.5	-4	-1	25%	-7.0%	-15%
